Screening results (PubChem BioAssay)
GLA inh pH 4.5 = inhibitors of human alpha-galactosidase A at pH 4.5 | P06280 | purified enzyme, 4-MU-alpha-Gal fluorescence, pH 4.5 | activity change, negative = inhibition, % at 105 µM | 230,000 tested, under 10 active | AID 1467; inconclusive = small, poorly fitted or top-dose-only inhibition, or a rising curve; inactive = flat fitted curve, though single readings scatter; no compound was filed as active;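 note: 0% = full activity with enzyme and -100% = basal without enzyme; dose as in the result columns while the protocol names 77 µM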
Rango complex inh = Rango-importin beta binding inhibition. Potency, µM (series often up to 92.2 µM), for the others: at the highest dose inhibition of complex formation. hit rate 0.031% among 340,000. Rango CFP/YFP FRET sensor + importin beta, 45 min. Q14974; active = rising FRET ratio curve, often small or poorly fitted; inconclusive = mostly compound fluorescence or quenching in the first reads; inactive = flat curves in all reads;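 note: potency is the fitted concentration of half-maximal effect; 0% = DMSO wells and 100% = buffer wells lacking importin beta; nearly all actives have a fitted effect of over 15% in size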
Target sequence (Q14974 whole entry, looked up): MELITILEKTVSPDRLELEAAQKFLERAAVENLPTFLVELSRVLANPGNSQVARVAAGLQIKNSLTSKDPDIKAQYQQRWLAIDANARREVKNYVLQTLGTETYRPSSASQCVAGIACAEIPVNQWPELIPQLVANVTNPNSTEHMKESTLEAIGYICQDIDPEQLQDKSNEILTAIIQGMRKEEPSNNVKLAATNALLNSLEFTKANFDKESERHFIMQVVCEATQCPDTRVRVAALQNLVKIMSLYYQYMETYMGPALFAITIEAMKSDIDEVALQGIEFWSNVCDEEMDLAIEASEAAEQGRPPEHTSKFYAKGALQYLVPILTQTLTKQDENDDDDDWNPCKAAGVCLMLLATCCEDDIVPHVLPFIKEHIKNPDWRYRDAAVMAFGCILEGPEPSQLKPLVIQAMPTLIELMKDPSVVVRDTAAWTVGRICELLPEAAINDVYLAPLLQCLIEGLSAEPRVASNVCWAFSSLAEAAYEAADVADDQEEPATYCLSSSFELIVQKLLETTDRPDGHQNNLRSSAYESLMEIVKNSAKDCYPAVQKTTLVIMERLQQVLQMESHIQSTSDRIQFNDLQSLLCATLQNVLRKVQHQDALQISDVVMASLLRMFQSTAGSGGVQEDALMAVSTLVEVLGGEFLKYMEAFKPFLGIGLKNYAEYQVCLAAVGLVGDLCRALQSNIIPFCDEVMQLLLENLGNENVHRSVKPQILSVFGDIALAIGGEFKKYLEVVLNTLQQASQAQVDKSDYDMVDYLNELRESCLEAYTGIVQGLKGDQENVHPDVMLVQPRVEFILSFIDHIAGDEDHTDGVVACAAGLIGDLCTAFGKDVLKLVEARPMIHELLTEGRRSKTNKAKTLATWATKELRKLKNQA
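FRET biosensor Rango (snurportin 1 IBB between N-terminal EYFP and C-terminal Cerulean), 50 nM in PBS/1 mM DTT/0.02% Tween-20/0.1% BSA, preincubated 5 min RT with compound; 0.125 microM importin beta added, 45 min RT, CFP/YFP FRET ratio read.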
Rango release inh = prevents RanGTP from dissociating the Rango-importin beta complex; O95149+P62826; Biochemical FRET Rango-importin beta, RanGTP-induced dissociation; Potency, µM (series often up to 46.1 µM), for inactives: at the top dose activity change, negative = inhibition; hit rate 0.071% among 340,000; AID 540253; active means falling FRET ratio curve, often poorly fitted, with flat reads before Ran was added; inconclusive means other falling curves, or compound fluorescence or quenching; inactive means flat or rising ratio curve;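 note: potency is the fitted concentration of half-maximal effect; % of control where 0% means no effect; nearly all actives have a fitted effect of over 45% in size; -100% = wells without RanGTP and RCC1; the record marks most hits as doubtful in a second field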
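Rango/importin beta premix (0.1/0.25 uM final), PBS + 1 mM DTT + 0.02% Tween-20 + 0.1% BSA; cpd 5 min RT; FRET pre-read; + RanGTP-RCC1 (0.6 uM Ran, 2 mM GTP, 0.2 uM RCC1); 45 min RT; FRET post-read, ex 430, em 486/530 nm.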
miR-21 reporter = miR-21 reporter, rising signal. 340,000 tested, under 10 active. Potency, µM (titrated, usually from 38.3 µM), for the others: top-dose reporter change, positive = more light. HeLa miR-21 FLuc reporter, luciferase, 48 h; active = well fitted rising curve with a large enough effect; inconclusive = small, poorly fitted or top-dose-only effect; inactive = no such curve, though single readings can be large or run the other way;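 note: % of control where 0% means no effect; miR-21 action dims this reporter so a rising signal means less miR-21 action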
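Compounds were titrated across several concentrations (up to approximately 40 uM) and incubated 48 hours with HeLa miR-21-FLuc reporter cells (miR-21 target sequence downstream of FLuc, endogenous miR-21). Readout was firefly luciferase luminescence after lytic detection reagent.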
An asterisk follows results filed as active; ? = inconclusive; · = no result given; & = joins results of further samples. An excerpt, so the mix of outcomes need not match the whole.

SMILES	GLA inh pH 4.5	Rango complex inh	Rango release inh	miR-21 reporter
Cc1ccc(CN2CC(C(=O)Nc3ccc4c(C)cc(=O)oc4c3)CC2=O)cc1 (stereo unspecified)	10	-0.5%	-8%	1%
O=C(Nc1cccc2ncccc12)c1ccccc1F	·	0.0%	-1%	3%
COc1ccc(NC(=O)CCS(=O)(=O)c2ccc3c(c2)CCCN3C(C)=O)cc1Cl	-3	-3.2%	-7%	2%
O=C(c1cc(F)c(F)cc1Cl)N1CCCc2ccccc21	·	-0.5%	1%	0%
CC(=O)NCc1cc(-c2nn(C)c(=O)c3ccccc23)ccc1C	2	0.9%	13%	-2%
CCS(=O)(=O)c1ccc(O)c(NC(=O)c2cc(-c3ccccn3)nc3ccccc23)c1	·	-2.9%	-20%	·
COc1cc(NC(=O)CCC(=O)N2CCN(S(=O)(=O)c3ccc(C)cc3)CC2)cc(OC)c1	·	-2.9%	0%	·
CN(Cc1ccccc1)C(=O)c1[nH]cnc1C(=O)Nc1ccc(Cl)cc1	·	2.8%	0%	·
COC(=O)c1cc2c(s1)CS(=O)C2 (stereo unspecified)	-1	?	-4%	-21%
Cc1ccc(NC(=O)c2ccccc2NC(=O)c2cccnc2)cc1	·	4.4%	-6%	2%
O=C(NCCC1=CCCCC1)C1CC(=O)N(C2CCCCC2)C1 (stereo unspecified)	8	0.0%	-3%	-3%
CCOC(=O)Cn1nc(C)c(NC(=O)c2ccc([N+](=O)[O-])c(C)c2)c1C	-1	-0.1%	-21%	0%
COc1cc(Oc2nc(C(F)(F)F)nc3ccccc23)ccc1C=O	·	-2.2%	-16%	0%
COc1ccc(CCNC(=O)C2CCCN(C(=O)N(C)C)C2)c(OC)c1 (stereo unspecified)	-2	3.0%	-1%	-5%
Cc1cc(C(=O)N2CCC(Cc3ccccc3)CC2)c(C)o1	·	-6.5%	0%	0%
CCN(CC)C(=O)CSc1nnc(-n2nc(C)cc2C)c2ccccc12	1	0.7%	-5%	-4%
Cc1cc(NC(=O)C2C3C(=O)N(c4cccnc4)C(C(=O)NC(C)(C)C)C34C=CC2(C)O4)no1 (stereo unspecified)	8	0.7%	4%	2%
Cc1cc(C)c(C#N)c(SCSCc2ccccc2)n1	6	-0.9%	7%	-14%
O=C(O)c1ccccc1Sc1ncnc2sc3c(c12)CCC3	-5	-1.0%	0%	-15%
CCN(CC)CCN(Cc1cc2cc3c(cc2[nH]c1=O)OCCO3)C(=S)NCCCOC	·	-2.6%	13%	-17%
CN1C(=O)c2cccc(NCCCN3C(=O)c4ccccc4C3=O)c2C1=O	3	?	?	-1%
COC(=O)c1ccc(-n2nnnc2SCc2ccccc2OC)cc1	-5	4.4%	24%	-8%
Cc1ccc2cc3cc(C(=O)N4CCCCC4C)oc3nc2c1 (stereo unspecified)	-20	3.9%	1%	-22%
Cc1ccccc1Nc1nc(N)nc(COC(=O)c2ccc(S(=O)(=O)N(C)C)cc2)n1	-3	-1.2%	13%	-18%
CC(C)n1c(=O)[nH]c2cc(C(=O)Nc3ccccc3)ccc21	-11	-1.2%	0%	-2%
Oc1ccc(-c2n[nH]c(=S)n2Cc2ccco2)cc1	7	-2.4%	-10%	1%
O=C(O)C1C2C=CC(C2)C1C(=O)NCc1ccccc1 (stereo unspecified)	·	-1.1%	14%	·
CCc1cc(C(=O)N2CCN(c3ncc(C(F)(F)F)cc3Cl)CC2)sc1C	·	-0.4%	-4%	-1%
O=C(NCC(c1cccs1)N1CCOCC1)c1cccnc1 (stereo unspecified)	·	2.3%	18%	-3%
CNC(=S)N/N=C/c1ccc(-c2cccc(C(=O)O)c2)o1	-2	-6.5%	-4%	-50%
O=C(O)C1CCCN1c1nc(C(F)(F)F)nc2ccccc12 (stereo unspecified)	-1	2.6%	25%	3%
CCOc1cc(N2CCOCC2)c(OCC)cc1NC(=O)C1CC(=O)N(c2ccc(C)cc2)C1 (stereo unspecified)	·	-1.0%	-7%	·
Cc1ccc(-n2nnnc2SCC(=O)Nc2ccccc2-c2ccccc2)cc1C	-4	-0.1%	8%	-8%
c1cn2c(Nc3ccc4c(c3)OCCO4)c(-c3ccc(N4CCOCC4)cc3)nc2cn1	-13	?	-10%	-64%
Cc1ccc(N(Cc2ccc(C(=O)Nc3ccccc3C(=O)NCc3ccco3)cc2)S(C)(=O)=O)cc1C	-10	-0.1%	3%	-1%
Cc1nnc(SCc2cc(=O)[nH]c(/N=C(\N)Nc3ccccc3)n2)s1	-5	-4.7%	-5%	-1%
COc1cccc(/C=N/NC(=O)CCc2ccccc2)c1	2	1.0%	-4%	-7%
O=C(CSc1nc2[nH]ncc2c(=O)n1-c1ccccc1)NCc1cccs1	0	0.4%	-17%	-6%
O=C(Nc1ccc(F)cc1)NC1CCN(Cc2c(F)cccc2Cl)CC1	0	-3.5%	?	10%
COc1ccc2oc(=O)c(C(=O)NCc3cccnc3)cc2c1	-2	?	?	-4%
O=C(OCC(=O)N1CCc2ccccc2C1)c1cc(=O)[nH]c2ccccc12	1	0.4%	-3%	-8%
O=S(=O)(c1ccc(Br)s1)N1CCNCC1	5	2.8%	9%	7%
COc1ccc(CNC(=O)CCOc2ccc(C(C)(C)C)cc2)cc1	1	-1.5%	9%	-4%
CCCC1(C)SC(NC(C)=O)=NN1C(C)=O (stereo unspecified)	1	-0.3%	-5%	-1%
O=C(CSc1nc2ccccc2s1)Nc1ccc(N2CCOCC2)c(Cl)c1	-4	-1.6%	0%	-16%
Cc1ccc2[nH]c(=O)c(CN(C)S(=O)(=O)c3cccc4nonc34)cc2c1	·	-2.9%	1%	-4%
COc1ccc2c(=O)c3c(=O)n(Cc4ccccc4)c(C(C)C)nc3oc2c1	·	-5.7%	-9%	·
Cc1cc(C)nc(N/N=C/c2cccc3ccccc23)n1	1	-3.5%	36%	-38%
COC(=O)C1=C(C(=O)OC)[C@@H]2N(C)c3ccccc3[C@@]23C[C@@H](C(=O)OC)N(C(=O)C2CCC2)C3=N1	-1&2	-0.6%	-2%	-5%
CCN1CCN(C(c2cccs2)C(C)NC(=O)c2c(F)cccc2F)CC1 (stereo unspecified)	1	0.2%	-3%	-5%
COc1ccc(NC(=O)COc2nsnc2N2CCOCC2)c(OC)c1	·	0.6%	12%	-5%
CC(C)Cn1c(N)c(C(=O)COC(=O)c2ccc(O)cc2)c(=O)n(C)c1=O	-14	-2.7%	-11%	9%
COc1cc(C(=O)NC(=S)Nc2ccc(N3CCCC3)cc2)cc(OC)c1OC	-8	2.6%	-14%	-4%
C/C(=N\NC(=O)Cn1nc(C)cc1C)c1ccc([N+](=O)[O-])cc1	-3	1.2%	-4%	-11%
Cc1cnc(CN2CCc3c([nH]c4ccccc34)C2CC(C)C)[nH]1 (stereo unspecified)	-7	?	-20%	1%
COc1ccccc1CNC(=O)C(C)c1ccc([N+](=O)[O-])cc1 (stereo unspecified)	11	?	26%	-1%
COc1ccc2c(c1)CC/C(=C\Nc1ccc3c(c1)OCO3)C2=O	3	?	?	-41%
CC(=O)NCCc1nc2cc(NC(=O)c3ccc(F)cc3)ccc2n1C	·	0.9%	3%	-43%
O=C(CSc1nnc(-c2ccccc2)n1Cc1ccccc1)NC1CC1	-4	2.5%	15%	-2%
O=C1COc2ccc(S(=O)(=O)CCC(=O)NC3CCCCC3)cc2N1	·	0.2%	1%	4%

Next section; the last 3 above are carried over.
SMILES	GLA inh pH 4.5	Rango complex inh	Rango release inh	miR-21 reporter
CC(=O)NCCc1nc2cc(NC(=O)c3ccc(F)cc3)ccc2n1C	·	0.9%	3%	-43%
O=C(CSc1nnc(-c2ccccc2)n1Cc1ccccc1)NC1CC1	-4	2.5%	15%	-2%
O=C1COc2ccc(S(=O)(=O)CCC(=O)NC3CCCCC3)cc2N1	·	0.2%	1%	4%
CN1C(=O)c2c(sc3c2CC(C)(C)SC3)N2CCN=C12	4	-2.4%	-5%	-8%
COc1ccc(-n2nc(C(=O)NCC(=O)NCCC3=CCCCC3)c3ccccc3c2=O)cc1	·	0.8%	1%	15%
CCn1c(SCc2cccnc2)nc2c1c(=O)n(C)c(=O)n2C	0	0.0%	13%	-13%
N#Cc1c2n(c3c(=O)n(CC(=O)c4ccc(Br)cc4)cnc13)CCCC2	6	0.0%	-17%	-3%
CC(C)CC(=O)/C(=C\c1ccc(Cl)cc1Cl)n1cncn1	-6	3.2%	0%	?
Cc1ccc(C(=O)N[C@H](C(=O)OCc2cc(=O)n3c(n2)sc2ccccc23)C(C)C)cc1	-4	?	-9%	-15%
O=S1(=O)[C@H]2C[C@@H]3C=C[C@@]2(CN1Cc1ccc(F)cc1)O3	·	0.3%	-3%	3%
Cc1ccc(/C(N)=N/OC(=O)COc2ccc(Cl)c(C)c2)cc1	3	-6.1%	1%	-4%
Cc1ccc2oc(C(=O)N3CCN(CCO)CC3)c(C)c2c1	·	-1.2%	5%	-9%
CC1CNC(=S)N(c2ccccc2)C1=O (stereo unspecified)	·	2.9%	2%	·
COc1ccc(C2C3C(=O)N(Cc4ccccc4)C(=O)C3ON2c2ccccc2)c(OC)c1OC (stereo unspecified)	8	-0.4%	2%	-7%
CCc1ccc(Nc2cc(C)nc3ncnn23)cc1	·	2.2%	9%	-4%
CC(NC(=O)Cc1ccsc1)c1ccc(F)cc1 (stereo unspecified)	·	-2.0%	0%	2%
CCn1cc(C(=O)NCC(OC)OC)c(=O)c2cc(S(=O)(=O)N3CCC(C)CC3)ccc21	·	?	?	3%
CCN1C(=O)C(CC(=O)Nc2ccc(F)cc2)N(Cc2cccs2)C1=S (stereo unspecified)	2	0.9%	18%	25%
Cc1cccc(NC(=O)c2cc(S(=O)(=O)N(C)c3ccc(F)cc3)ccc2Cl)n1	·	3.7%	-4%	·
CC1(c2nnc(Cc3ccccc3)o2)CC(c2ccccc2[N+](=O)[O-])=NO1 (stereo unspecified)	·	-1.3%	12%	·
Cc1ccc(-c2noc(CCC(=O)NCCN3CCc4ccccc4C3)n2)cc1	4	-0.8%	0%	0%
CN(C)C(=S)Nc1ccc(Cc2ccncc2)cc1	·	2.5%	9%	0%
Cc1cnc(CN(C)C(=O)CC2C(=O)NCCN2Cc2cccc(F)c2F)[nH]1 (stereo unspecified)	·	4.6%	7%	1%
COC(=O)c1ccc(CSc2ccc3nnc(-c4cccnc4)n3n2)o1	6	·	·	-8%
COc1cccc(CNC(=O)COC(=O)CCCNC(=O)c2ccc(Cl)cc2)c1	·	-3.0%	9%	·
C=CCc1cccc2cc(C(=O)NCCOC)c(=O)oc12	6	0.0%	-6%	-10%
Cn1c(=O)c2cc(S(=O)(=O)NCCC(=O)NCC3CCCO3)ccc2n(C)c1=O (stereo unspecified)	1	0.7%	0%	1%

Entries of single compounds as entered above. Screens in order: GLA inh pH 4.5	Rango complex inh	Rango release inh	miR-21 reporter
CCOC(=O)Cn1nc(C)c(NC(=O)c2ccc([N+](=O)[O-])c(C)c2)c1C across the screens: -1	-0.1%	-21%	0%
CC(=O)NCCc1nc2cc(NC(=O)c3ccc(F)cc3)ccc2n1C across the screens: ·	0.9%	3%	-43%
O=C(CSc1nc2[nH]ncc2c(=O)n1-c1ccccc1)NCc1cccs1 across the screens: 0	0.4%	-17%	-6%
O=C(Nc1cccc2ncccc12)c1ccccc1F across the screens: ·	0.0%	-1%	3%

Arranged by heavy-atom count (largest number first): three of the compounds above
SMILES	GLA inh pH 4.5	Rango complex inh	Rango release inh	miR-21 reporter
COc1cccc(CNC(=O)COC(=O)CCCNC(=O)c2ccc(Cl)cc2)c1	·	-3.0%	9%	·
Cc1cnc(CN(C)C(=O)CC2C(=O)NCCN2Cc2cccc(F)c2F)[nH]1 (stereo unspecified)	·	4.6%	7%	1%
COC(=O)c1ccc(CSc2ccc3nnc(-c4cccnc4)n3n2)o1	6	·	·	-8%
